Mtb bLac sens: beta-lactam sensitization of Mtb H37Rv, H37Rv; M. tuberculosis H37Rv growth with meropenem, percent inhibition; hits of this screen are not shown here; inhibition, % at 25 µM; 330,000 tested, 0.27% active;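 active means about 74% or more and at least 40 points above the plate without the antibiotic, then above 30% in a dose series; inconclusive means first-round hits that could not be retested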;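 further: growth measured after seven days incubation then overnight dye step; 0% = bacteria only wells and 100% = bacteria with antibiotic; twin plates without the antibiotic show which effects depend on it; some results filed as inactive read as strong as hits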
RecA splice inh: Mtb RecA intein splicing inhibitors, primary screen, biochemical, fluorescence, HTS. Protein RecA (Mycobacterium tuberculosis (strain ATCC 25618 / H37Rv)), P9WHJ3. cell-free RecA intein splicing. inhibition, %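 (about 9 µM by stock and volumes)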. 290,000 tested, 0.75% active; in the data active means inhibition above about 30%; inconclusive means no clear call, values can overlap the other calls;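 further: 0% = vehicle wells and 100% = reference inhibitor control wells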
Target sequence (P9WHJ3 whole entry, looked up, canonical isoform): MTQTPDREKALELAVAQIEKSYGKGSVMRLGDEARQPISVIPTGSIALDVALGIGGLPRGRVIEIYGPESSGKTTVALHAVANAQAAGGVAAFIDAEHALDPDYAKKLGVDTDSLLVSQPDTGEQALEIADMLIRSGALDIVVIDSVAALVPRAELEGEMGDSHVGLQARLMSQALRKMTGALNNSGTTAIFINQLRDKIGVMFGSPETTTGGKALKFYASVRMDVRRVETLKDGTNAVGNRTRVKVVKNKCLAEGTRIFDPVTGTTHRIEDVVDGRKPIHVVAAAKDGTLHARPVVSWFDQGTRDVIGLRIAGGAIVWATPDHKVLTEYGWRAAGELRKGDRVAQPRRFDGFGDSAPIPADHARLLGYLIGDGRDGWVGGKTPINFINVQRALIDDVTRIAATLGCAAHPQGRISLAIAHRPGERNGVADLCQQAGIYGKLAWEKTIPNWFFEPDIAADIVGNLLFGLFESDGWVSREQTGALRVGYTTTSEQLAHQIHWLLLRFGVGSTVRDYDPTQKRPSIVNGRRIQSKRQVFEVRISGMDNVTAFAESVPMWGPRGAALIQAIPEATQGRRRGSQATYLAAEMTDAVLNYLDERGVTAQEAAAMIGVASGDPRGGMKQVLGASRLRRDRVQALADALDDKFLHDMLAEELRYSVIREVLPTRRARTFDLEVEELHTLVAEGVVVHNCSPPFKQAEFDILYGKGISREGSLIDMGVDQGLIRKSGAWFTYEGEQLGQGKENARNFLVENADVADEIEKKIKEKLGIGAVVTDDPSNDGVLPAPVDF
Mtb growth: M. tuberculosis H37Rv growth inhibitors, H37Rv strain (AID 1626); 220,000 tested, 0.95% active; one-dose inhibition, % at 10 µM; IC50 in µM for titrated hits; M. tuberculosis H37Rv growth inhibition; higher % means a stronger effect;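 active means confirmed in a dose series; inconclusive means inhibition above 80% but not taken into the dose series; inactive means below 80% or under 30% at every dose of the series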;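 further: bacteria incubated seven days before Alamar blue readout; 0% = bacteria only wells and 100% = bacteria with antibiotic wells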
YopH PTP inh: YopH tyrosine phosphatase inhibitors, primary screen, biochemical, fluorescence Ex485/Em525. YopH tyrosine phosphatase [Yersinia enterocolitica]. inhibition, %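 (about 10 µM by stock and volumes)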. 140,000 tested, 0.16% active;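 active means inhibition of 50% or more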;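 further: controls were vehicle for no effect and minimum signal wells for full effect; inactives centre near -20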
Arbovirus anti: antivirals against arbovirus infection, primary screen, cell-based, full library, 10K replicate subset; arbovirus infection cell-based antiviral screen; inhibition, % at 10 µM; 200,000 tested, 0.37% active; AID 1251, 2008;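 active means inhibition from about 30%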;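 further: bluetongue infection of BSR cells; cell survival read as ATP light after 72 h; 0% = infected wells without compound and 100% = uninfected wells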
Arbovirus anti repeat: further read-out of Arbovirus anti, marked with its call; inhibition, %; measured here: 10K subset replicate screen; many hits read low in the repeat;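 first of two repeat runs on a subset; 0% = infected and 100% = uninfected wells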
* hit, by the source's call; ? = inconclusive; nt = no result given. This is a subset; rates above refer to the full screens.

SMILES	Mtb bLac sens	RecA splice inh	Mtb growth	YopH PTP inh	Arbovirus anti	others
COc1cc(C#N)ccc1OC(=O)C1CCN(C(=O)c2ccc(F)cc2)CC1	-8	7.0	nt	nt	nt
Cc1nonc1C1CCCN1C(=O)c1cc(COc2ccc(F)cc2F)on1 (stereo not given)	0	1.7	13%	nt	-6
O=C(O)CSCC(=O)NCc1ccc(Cl)cc1	0	-1.2	3%	nt	6
CCOc1ccc(C(O)Cc2nc3ccccc3n2C)cc1 (stereo not given)	4	-0.8	2%	-24	-3
Fc1ccc2[nH]c3c(c2c1)CN(C(=S)NCc1ccccc1)CC3	-4	9.1	22%	nt	nt
O=C(Nc1ccccc1OC(F)F)c1oc2ccccc2c1COc1ccccc1	15	-7.1	0%	-12	-8
CC(C)C(O)(C#CCN1CCCC1)c1ccccc1 (stereo not given)	-5	-0.1	4%	-27	8
CC(C)CCNC(=O)/C=C/c1ccc(Br)cc1	8	-0.7	3%	-15	-1
COc1cccc(-n2c(SCC(=O)Nc3cc(C)on3)nc3c([nH]c4ccccc43)c2=O)c1	2	-3.5	52%	-9	8	Arbovirus anti repeat=23
C[N+]1(CC(=O)Nc2ccc(F)cc2)CCN(C(=O)c2ccco2)CC1	50	-1.6	3%	-31	5
O=C(CCC(=O)Nc1ccccc1)NNS(=O)(=O)c1ccc(Cl)cc1	-6	-3.0	nt	nt	nt
CCC(NS(=O)(=O)c1ccc(C)cc1)C(=O)N1CCC2(O)CCCCC2C1 (stereo not given)	-12	0.3	-10%	3	-1
O=C(Nc1ccc(SC(F)F)cc1)C1CC(=O)N(Cc2ccccc2)C1 (stereo not given)	12	1.3	nt	nt	nt
CCCCC(CC)C(=O)Oc1ccc(O)c(C(C)(C)C)c1 (stereo not given)	-1	8.0	-3%	nt	-33
N#Cc1c(NC(=O)CSc2nc(-c3ccccc3)cc(C(F)(F)F)n2)sc2c1CCC2	1	1.2	1%	-15	-7

Compounds from the list above that contain a Cl atom (2):
SMILES	Mtb bLac sens	RecA splice inh	Mtb growth	YopH PTP inh	Arbovirus anti	others
O=C(O)CSCC(=O)NCc1ccc(Cl)cc1	0	-1.2	3%	nt	6
O=C(CCC(=O)Nc1ccccc1)NNS(=O)(=O)c1ccc(Cl)cc1	-6	-3.0	nt	nt	nt

(list continues)
SMILES	Mtb bLac sens	RecA splice inh	Mtb growth	YopH PTP inh	Arbovirus anti	others
CC(=O)NCC(=O)OCC(=O)Nc1ccc(C(C)=O)cc1	5	1.5	nt	-16	11
Cc1cc(C(=O)OCC(=O)c2cccc([N+](=O)[O-])c2)c2cccc(C)c2n1	9	-2.9	nt	-12	5
CC1=C(c2ccccc2)CCC1=O	-7	-0.3	-7%	nt	nt
O=C(O)CCCn1nc(-c2ccccc2)c2ccccc21	-2	-1.1	1%	-47	-1
O=C(Nc1ccc(N2CCOCC2)c(Cl)c1)c1ccc([N+](=O)[O-])o1	nt	-3.1	7.5µM*	nt	-40
CC12CC3(C)CC(C)(C1)CC(C(=O)NC(=S)NC(C)(C)C)(C2)C3	-4	-2.1	-2%	-24	4
Cc1sc2cc3c(c(C(=O)c4ccccc4)[n+]2c1C)-c1cccc2cccc-3c12	100	5.0	1.5µM*	-14	-23
COC(=O)c1ccccc1NC(=O)CSc1nc(O)c(-c2ccccc2)c(=O)[nH]1	96	-0.4	27%	nt	4
N#C/C(=C(/O)c1ccc(S(=O)(=O)N(CCCl)CCCl)cc1)c1nc2ccccc2[nH]1	0	-2.3	0%	nt	nt
O=C(Nc1ccc2[nH]c(=O)[nH]c2c1)c1ccc(Cl)c(Cl)c1	4	5.0	4%	nt	8
Cc1ccc(C(=O)N/N=C\c2sccc2C)cn1	-2	-3.2	-2%	nt	4
CS(=O)(=O)C1=NSC2=NC(=O)/C(=C\c3ccc(OC(=O)c4ccco4)c(Br)c3)C(=N)N21	0	8.7	nt	nt	nt
CC(C)Oc1ccc(N2CC(C(=O)NC3=NCCS3)CC2=O)cc1 (stereo not given)	-3	0.7	nt	nt	-3
CC(=O)Nc1ccc(NS(=O)(=O)c2cc(Cl)ccc2Cl)cc1	13	1.3	-6%	nt	nt
NC(=O)c1c(NC(=O)c2cccc(N3C(=O)CCC3=O)c2)sc2c1CCCCC2	-6	-2.5	nt	nt	nt
Nc1ccccc1SCC(=O)Nc1ccc2c(c1)OCCO2	-4	-3.6	nt	nt	nt
Cc1ccc(C)c(N(CC(=O)N/N=C/c2ccc(-c3ccc([N+](=O)[O-])cc3)o2)S(=O)(=O)c2ccccc2)c1	93	-2.8	?	-37	8
CCC(=O)Nc1ccc(S(=O)(=O)Nc2ccccn2)cc1	-12	2.1	-3%	nt	10
COc1ccc(Cc2nc(=S)[nH][nH]2)cc1Br	-3	nt	2%	nt	2
O=C(CN1C(=O)c2ccccc2C1=O)Nc1cc(C(=O)O)cc(C(=O)O)c1	-1	-2.3	nt	nt	nt
Cc1nnsc1C(=O)N1CCCC(N2CCN(c3ccc(F)cc3)CC2)C1 (stereo not given)	-19	-2.2	nt	nt	nt
Nn1c(SCC(=O)Nc2ccc(S(N)(=O)=O)cc2)nnc1-c1ccco1	3	-0.8	nt	nt	nt
Cc1cc2ncn(C(=O)N3CCCCCC3)c2cc1C	2	4.1	5%	-15	-3
COC(=O)COc1ccc(/C=C2\C(=O)NC(=S)N(c3ccc(C)cc3)C2=O)cc1OC	7	-3.3	nt	nt	nt
COc1ccc(-c2noc(CCC(=O)NCCc3ccccc3)n2)cc1	-7	-1.5	nt	nt	nt
O=C(CC1(O)C(=O)Nc2ccccc21)c1cccc(-n2cccc2)c1 (stereo not given)	-2	5.2	2%	nt	-1
COCC(C)n1c(C)cc(C(=O)CSc2nc3ccccc3c(=O)[nH]2)c1C (stereo not given)	4	-0.2	-2%	-6	16
COC(=O)c1sc(S(=O)(=O)Nc2ccc(C)cc2)c(C(=O)OC)c1C	1	3.2	-1%	-20	3
COc1cccc(N2CCN(C(=O)c3ccc(CS(=O)c4ccccc4C)o3)CC2)c1 (stereo not given)	-3	-0.9	nt	nt	nt
COc1ccccc1OCC(=O)NNC(=O)C(=O)N1CCCC1	?	-1.4	-9%	-24	-4

18 compounds already listed, sorted by molar mass, largest number first.
SMILES	Mtb bLac sens	RecA splice inh	Mtb growth	YopH PTP inh	Arbovirus anti	others
Cc1ccc(C)c(N(CC(=O)N/N=C/c2ccc(-c3ccc([N+](=O)[O-])cc3)o2)S(=O)(=O)c2ccccc2)c1	93	-2.8	?	-37	8
CS(=O)(=O)C1=NSC2=NC(=O)/C(=C\c3ccc(OC(=O)c4ccco4)c(Br)c3)C(=N)N21	0	8.7	nt	nt	nt
COC(=O)COc1ccc(/C=C2\C(=O)NC(=S)N(c3ccc(C)cc3)C2=O)cc1OC	7	-3.3	nt	nt	nt
NC(=O)c1c(NC(=O)c2cccc(N3C(=O)CCC3=O)c2)sc2c1CCCCC2	-6	-2.5	nt	nt	nt
Cc1nnsc1C(=O)N1CCCC(N2CCN(c3ccc(F)cc3)CC2)C1 (stereo not given)	-19	-2.2	nt	nt	nt
COCC(C)n1c(C)cc(C(=O)CSc2nc3ccccc3c(=O)[nH]2)c1C (stereo not given)	4	-0.2	-2%	-6	16
COC(=O)c1sc(S(=O)(=O)Nc2ccc(C)cc2)c(C(=O)OC)c1C	1	3.2	-1%	-20	3
O=C(CN1C(=O)c2ccccc2C1=O)Nc1cc(C(=O)O)cc(C(=O)O)c1	-1	-2.3	nt	nt	nt
CC(=O)Nc1ccc(NS(=O)(=O)c2cc(Cl)ccc2Cl)cc1	13	1.3	-6%	nt	nt
COc1ccc(-c2noc(CCC(=O)NCCc3ccccc3)n2)cc1	-7	-1.5	nt	nt	nt
CC(C)Oc1ccc(N2CC(C(=O)NC3=NCCS3)CC2=O)cc1 (stereo not given)	-3	0.7	nt	nt	-3
O=C(CC1(O)C(=O)Nc2ccccc21)c1cccc(-n2cccc2)c1 (stereo not given)	-2	5.2	2%	nt	-1
O=C(Nc1ccc2[nH]c(=O)[nH]c2c1)c1ccc(Cl)c(Cl)c1	4	5.0	4%	nt	8
COc1ccccc1OCC(=O)NNC(=O)C(=O)N1CCCC1	?	-1.4	-9%	-24	-4
Nc1ccccc1SCC(=O)Nc1ccc2c(c1)OCCO2	-4	-3.6	nt	nt	nt
COc1ccc(Cc2nc(=S)[nH][nH]2)cc1Br	-3	nt	2%	nt	2
Cc1cc2ncn(C(=O)N3CCCCCC3)c2cc1C	2	4.1	5%	-15	-3
Cc1ccc(C(=O)N/N=C\c2sccc2C)cn1	-2	-3.2	-2%	nt	4

The results go on.
SMILES	Mtb bLac sens	RecA splice inh	Mtb growth	YopH PTP inh	Arbovirus anti	others
O=C(c1ccco1)n1nc(NCc2ccccc2)nc1NCc1ccccc1	-4	-1.2	3%	-16	-4
Cc1ccc(NC(=O)c2cc(NC(=O)C3CC=CCC3C(=O)O)ccc2N2CCOCC2)cc1 (stereo not given)	-15	-0.8	-2%	-37	2	Arbovirus anti repeat=3
Cc1ccc(N(CC(=O)NCc2ccc(F)cc2)S(=O)(=O)c2c(C)n[nH]c2C)cc1	5	0.3	nt	nt	nt
COCCn1c(C)cc(C(=O)COC(=O)CNC(=O)c2ccccc2)c1C	-1	-1.2	9%	-25	3
CC(CN1CCOCC1)C(=O)c1ccccc1 (stereo not given)	2	-0.4	-11%	-35	10
COc1ccccc1CNC(=O)c1oc2ccc(S(=O)(=O)N3CCOCC3)cc2c1C	0	-1.3	nt	nt	nt
CC1CCN(c2c(NCc3ccc(C(=O)NCC4COc5ccccc5O4)cc3)c(=O)c2=O)CC1 (stereo not given)	-4	-1.1	2%	-4	-2	Arbovirus anti repeat=-5
O=C1c2ccccc2C(=O)N1CCn1nc(Cl)nc1Cl	-3	-1.0	-4%	-26	2
CCCCn1c(N)c(N(CCC(C)C)C(=O)COC(=O)c2ccccc2)c(=O)[nH]c1=O	-4	-1.0	-1%	nt	-1
O=C(O)c1ccccc1NCc1cccs1	3	-1.7	nt	nt	nt
COCCCn1c(=O)c2ccccc2n(CC(=O)NCCC2=CCCCC2)c1=O	1	1.1	nt	nt	nt
O=C(Cc1ccc(S(=O)(=O)N2CCOCC2)s1)NCCC(c1ccccc1)c1ccccc1	2	4.0	2%	-22	-24
COc1ccc(OCCSc2nnc(Cc3cccc4ccccc34)n2N)cc1	5	1.1	5%	-19	4
CC(=O)c1ccc(N2CCN(C(=O)c3cc4c(-c5ccccc5F)nn(C)c4s3)CC2)cc1	6	3.8	14%	-13	-17	Arbovirus anti repeat=-3
O=C(O)c1ccc(/C=N/NC(=O)c2ccc3c(c2)OCCO3)cc1	-5	0.1	nt	nt	nt
CCCS(=O)(=O)N1CCN(CCCc2ccccc2)CC1	2	0.2	-6%	-14	-1
CN(C(=O)COc1ccccc1C(=O)NCCOc1ccccc1)c1ccccc1	3	2.9	7%	-1	-33
CCCOc1cccc(NC(=O)c2cc(C)oc2C)c1	7	2.9	10%	-36	3
O=S(=O)(N1CCCCC1)N1CCN(c2ccc(F)cc2)CC1	-3	-0.9	1%	13	2
Cc1ccc2cc(CCNC(=O)c3cccc([N+](=O)[O-])c3)c(=O)[nH]c2c1	0	-1.8	2%	nt	-2
CC(=O)Oc1ccc(N2C(=O)C3C(C2=O)C2C=CC3C23CC3)cc1[N+](=O)[O-] (stereo not given)	0	0.2	-1%	nt	7
CCC1(c2ccccc2)NC(=O)N(CC(=O)NCCN2C(=O)S/C(=C\c3cccnc3)C2=O)C1=O (stereo not given)	-4	-1.9	nt	nt	nt
NS(=O)(=O)c1ccc(CCNC(=O)c2cc(-c3ccccc3)nc3ccccc23)cc1	4	5.9	-4%	-25	9
CCc1cccc(C)c1N1C(=O)CC(C)(C)CC1=O	5	4.7	5%	nt	nt
COc1ccc(-n2ncc3c2CC(C)(C)CC3NC(=O)CCn2nc(C)cc2C)cc1 (stereo not given)	-6	-0.7	nt	nt	nt
CCOC(=O)C(O)(c1ccc(N(C)C(=O)c2ccc(Cl)c(Cl)c2)cc1)C(F)(F)F (stereo not given)	-3	3.0	-6%	1	7
